NS1 function inh – blocks influenza NS1 protein function; Potency, µM (doses to about 46.1 µM), without a hit: at the highest dose activity, positive = more growth; hit rate 0.4% among 270,000; S. cerevisiae slowed by influenza A NS1, growth recovery by OD600; further: actives are rising curves; nearly all actives have a fitted effect of over 50% in size
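Recovery from NS1-induced slow growth read by OD600 in budding yeast switched to galactose assay medium (pH 6.0, -URA) at 1:100 dilution. Compound 23 nl per well; the matching strain lacking NS1 serves as control.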
SARS PLpro yeast – inhibitors of SARS-CoV papain-like protease in yeast. hit rate 0.19% among 330,000. AID 485353. Potency, µM (doses to about 32.9 µM), without a hit: at the highest dose activity, positive = growth rescue. S. cerevisiae expressing SARS-CoV PLpro, growth rescue; control for the full effect not named in the record; further: 0% is about no effect; nearly all actives have a fitted effect of over 55% in size; growth read by luminescence after 48 h
LASV entry inh – inhibitors of Lassa virus binding or cell entry. Lassa virus pseudotype entry inhibition, cell reporter; control for the full effect not named in the record. Potency, µM (series often up to 37.9 µM), inactives show top-dose activity change, negative = inhibition, hits mostly inhibitors. hit rate 1.2% among 300,000. AID 540256; active means well fitted inhibition curve with a large enough effect; inconclusive means small, poorly fitted or top-dose-only effect, or effect the other way; inactive means flat fitted curve, though single readings scatter; tested in HEK293 cells; further: on the % scale 0 is the no-effect control and ±100 the full control effect; nearly all actives have a fitted effect of over 50% in size; luciferase read-out
Cruzain inh noDet – inhibitors of Trypanosoma cruzi cruzain without detergent; AID 1476; purified cruzain, Z-FR-AMC fluorescence, no detergent; hit rate 2.3% among 200,000; Potency, µM, for the others: max response, negative = inhibition, hits mostly inhibitors; active means well fitted curve in the direction sought with a large enough effect; inconclusive means small, poorly fitted or top-dose-only effect, or another doubt; inactive means no such curve, though single readings can be large; an effect the other way counts as inactive or inconclusive;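 further: plate controls were enzyme without inhibitor for no effect and buffer without enzyme for full effect; nearly all actives have a fitted effect of over 40% in size; top concentration of the series not given in the record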
Target sequence (P25779 123-467 limits assumed): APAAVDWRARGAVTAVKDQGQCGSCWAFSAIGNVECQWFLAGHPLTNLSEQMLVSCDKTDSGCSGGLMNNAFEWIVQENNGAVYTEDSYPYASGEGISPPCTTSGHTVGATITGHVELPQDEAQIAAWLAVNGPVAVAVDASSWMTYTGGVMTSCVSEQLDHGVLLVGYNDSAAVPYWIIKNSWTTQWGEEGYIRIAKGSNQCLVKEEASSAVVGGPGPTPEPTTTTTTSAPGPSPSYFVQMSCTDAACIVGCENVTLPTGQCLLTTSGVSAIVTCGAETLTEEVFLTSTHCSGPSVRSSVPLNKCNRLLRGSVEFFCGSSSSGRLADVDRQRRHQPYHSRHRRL
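Detergent-free condition (0.00005% Triton X-100) in acetate buffer pH 5.5 with DTT. 1.5 nM enzyme and compound were pre-mixed 15 min, then 2 uM Z-FR-AMC substrate added; reaction progress from fluorescence change between first and third reads (60 s).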
Cruzain Triton – cruzain (T. cruzi) inhibition with detergent; P25779; hit rate 0.43% among 200,000; purified cruzain, Z-FR-AMC fluorescence, 0.01% Triton; Potency, µM, without a hit: max response, negative = inhibition, actives largely listed as inhibitors; active means well fitted curve in the direction sought with a large enough effect; inconclusive means small, poorly fitted or top-dose-only effect, or another doubt; inactive means no such curve, though single readings can be large; an effect the other way counts as inactive or inconclusive;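 further: plate controls were neutral wells for no effect and buffer without enzyme for full effect; nearly all actives have a fitted effect of over 40% in size; top concentration of the series not given in the record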
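Steps: dispense cruzain (1.5 nM final) in acetate buffer pH 5.5 with DTT and 0.01% Triton X-100; pin-transfer compounds; incubate 15 min RT; add Z-FR-AMC (2 uM final); read fluorescence every 30 s, using the 60 s intensity change.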
MARV entry inh – Marburg virus entry inhibition; hit rate 1.8% among 300,000; Potency, µM (series often up to 37.8 µM), inactives show at the highest dose activity change, negative = inhibition, actives largely listed as inhibitors; Marburg virus pseudotyped entry inhibition, cell reporter; control for the full effect not named in the record; about a third of the inactives were read at about 46 µM; active = well fitted inhibition curve with a large enough effect; inconclusive = small, poorly fitted or top-dose-only effect, or effect the other way; inactive = flat fitted curve, though single readings scatter; tested in HEK293 cells; about a fifth of its hits are not listed in these tables; further: on the % scale 0 is the no-effect control and ±100 the full control effect; luciferase read-out
RE007 growth inh – less growth of the S. pombe RE007 Vpr strain; S. pombe RE007 Vpr strain, BacTiter-Glo ATP luminescence, 24 h; control for the full effect not named in the record; Potency, µM (series often up to 92.2 µM), for inactives: top-dose activity change, negative = less growth; hit rate 0.21% among 360,000; AID 651644; active = well fitted falling curve with a large enough effect; inconclusive = small, poorly fitted or top-dose-only effect; inactive = no such curve, though single readings can be large or run the other way;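 further: on the % scale 0 is the no-effect control and ±100 the full control effect; nearly all actives have a fitted effect of over 50% in size; the assay follows cell death caused by Vpr and the record does not say whether a fall means rescue or toxicity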
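Fission yeast strain RE007, carrying one chromosomally integrated HIV-1 vpr copy, was seeded at OD 0.01 in PMG+AL medium with 23 nL pinned compound. After 24 h at 30 °C and 99% humidity, viability was read by BacTiter-Glo luminescence.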
2A StopGo – FMDV 2A StopGo reporter, luciferase signal; human cells with a luciferase reporter of 2A StopGo recoding; control for the full effect not named in the record; Potency, µM (series often up to 57.9 µM), for inactives: top-dose signal change, negative = less light; hit rate 1.2% among 410,000; active = well fitted falling curve with a large enough effect; inconclusive = small, poorly fitted or top-dose-only effect; inactive = no such curve, though single readings can be large or run the other way; tested in HEK293T cells; further: on the % scale 0 is the no-effect control and ±100 the full control effect; nearly all actives have a fitted effect of over 45% in size; luciferase light after 4 h
An asterisk follows results filed as active; ? = inconclusive; . = no result given; & = joins results of further samples; [ ] = another dose, or the depositor's remark. Unless noted, the call rests on the fitted dose curve; in most records, active means well fitted rising curve with a large enough effect; inconclusive means small, poorly fitted or top-dose-only effect; inactive means no such curve, though single readings can be large or run the other way. Potency means the concentration at half of the fitted maximal effect.

Molecule	NS1 function inh	SARS PLpro yeast	LASV entry inh	Cruzain inh noDet	Cruzain Triton	MARV entry inh	RE007 growth inh	2A StopGo
CC(=O)N/N=C(/c1ccccc1)C(O)c1ccccc1 (stereo not given)	17%	1%	.	.	.	.	3%	-4%
CSc1ccccc1NC(=O)c1ccoc1C	-20%	-9%	-17%	-1%	7.1%	13%	-14%	37%[activator]
Cc1ccc(CCNC(=O)C2CCCN(S(=O)(=O)c3c(C)noc3C)C2)cc1 (stereo not given)	-4%	-2%	-1%	1%	3.7%	-25%[46.1 µM]	-1%	-27%
CCCc1cc(=O)n2[nH]c(C)cc2n1	-2%	-1%	8%	-3%	0.6%	-5%	8%	8%
CC(=O)c1c(O)n(C)c(=S)n(-c2ccccc2)c1=O	-6%	-1%	0%	2%	1.7%	3%	-20%	-9%
O=C(c1cc(N2C(=O)C3C4CCC(C4)C3C2=O)ccc1Cl)N1CCN(c2ccc(F)cc2)CC1 (stereo not given)	-9%	-19%	5%	28%	-4.3%	?	31%	32µM*
CCN(CC)S(=O)(=O)c1ccc2c(c1)c(=O)c(C(=O)N1CCN(c3cccc(Cl)c3)CC1)cn2C	.	.	-19%[46.1 µM]	15%	-12%	-21%[46.1 µM]	.	-9%
CC(NC(=O)c1cc(COc2cccc(C(F)(F)F)c2)on1)c1nccs1 (stereo not given)	-9%	-4%	17%	.	.	10%	26%	13%
CCN(CC)CCn1c(C)nc2c(sc3nc4c(cc32)COC(C)(C)C4)c1=O	-1%	1%	15%	.	.	-7%	5%	9%
CCn1cc(C(=O)OCC(=O)NCc2ccccc2Cl)c(=O)c2ccc(C)nc21	.	1%	-13%	.	.	8%[46.1 µM]	33%	-23%
Cc1ccc(C(=O)Nc2nnc(-c3cccs3)s2)cc1C	-5%	8%	?	16µM*	-1.5%	8%	-15%	39%[activator]
Cc1cc(C(=O)Nc2ccc(CC(=O)O)cc2)c(C)o1	3%	4%	?	.	.	?	13%	-21%
Cc1ccc(S(=O)(=O)/N=S(/c2ccccc2)C(C)C)cc1 (stereo not given)	2%	-4%	21%[46.1 µM]	.	.	?	5%	-10%
O=C(CN1CC(=O)Oc2ccccc21)OCC(=O)c1ccc(Br)cc1	.	.	?	.	.	-24%	?	-19%
Cc1cccc(N2CCN(S(=O)(=O)c3ccc4c(c3)CCCN4C(=O)C3CCC3)CC2)c1C	?	-3%	6.3µM*	-5%	-2.8%	.	2%	?
O=C(c1ccco1)c1cn(CC(=O)N2CCCc3ccccc32)c2ccccc12	-67%	-21%	-2%	?	-14%	?	8%	?
CN(Cc1nc2ccccc2c(=O)[nH]1)C(=O)c1ccc(NC(=O)CSc2nnnn2C)cc1	.	-9%	2%	.	.	4%	-22%	-23%
COc1ccc(C(=O)N/C(=C\c2cccc3ccccc23)C(=O)NCCc2c[nH]c3ccccc23)cc1OC	?	0%	-8%	-21%	2.6%	0%	3%	-14%
CCOCCCn1c(SCc2nc3ccccc3s2)nc2ccccc2c1=O	16%	-4%	?	29%	-1.4%	7.1µM*	.	0%
CCCCNC(=S)NCCN1CCN(C(=S)NCCCC)CC1	.	-1%	0%	.	.	-10%[46.1 µM]	-29%	-7%
COc1ccccc1NC(=O)CN1C(=O)C(c2ccc(F)cc2)=NC12CCCCC2	.	.	-10%[46.1 µM]	-2%	-6.0%	11%[46.1 µM]	.	5%
C1=C(C(c2nnnn2C2CCCCC2)N2CCCCC2)COc2ccccc21 (stereo not given)	-33%	-5%	-25%	3%	2.1%	-4%	-4%	-2%
CN1CCN(C(=O)C2=C[C@H](c3csc4ccccc34)C[C@H](OCCCCO)O2)CC1	-2%	0%	.	.	.	.	-13%	-3%
O=C(COc1ccccc1Cl)N1CCN(c2ccccn2)CC1	.	-1%	-4%	.	.	-12%	-12%	4%
Nc1ccn(Cc2ccccc2)n1	.	0%	-27%[46.1 µM]	.	.	?	5%	-16%
CCCCOc1ccc(NC(=O)CCSc2nccn2C)cc1	-3%	-1%	5%	.	.	28%	4%	27%
COc1cc(C(C)=O)ccc1OCC(O)CN1CCN(c2c(C)cccc2C)CC1 (stereo not given)	-1%	-4%	7%[46.1 µM]	.	.	?	14%	-23%
Cc1ccc(Nc2nnc(SCC(=O)Nc3cccc(S(=O)(=O)NC4=NCCCCC4)c3)s2)cc1	?	-13%	?	4%	-8.6%	-1%	-5%	-16%
CC(=N\Nc1ccc(Cl)cc1)/C(=N/O)C(=O)Nc1ccccc1	-17%	5%	13%	7%	-13%	15%	4%	0%
Cc1ccc(N2CCn3c2nc2c3c(=O)n(Cc3cccc(Cl)c3)c(=O)n2C)cc1C	.	.	10%[46.1 µM]	-6%	-2.1%	.	.	4%
O=C(CN1C(=O)S/C(=C\c2ccccc2F)C1=O)NCCCn1ccnc1	2%	-2%	14%[46.1 µM]	.	.	-11%[46.1 µM]	8%	-13%
CCc1nc2ccc(C(=O)N3CCN(c4ccc(Cl)cc4)CC3)cc2nc1CC	-17%	-7%	?	?	-3.2%	.	6%	-15%&-3%
Cn1cc(C(=O)NCc2ccc(F)cc2)c(=O)c2cc(S(=O)(=O)N3CCCCC3)ccc21	4%	-3%	14%[46.1 µM]	?	-8.1%&-5.4%	?	7%	-21%&-19%
COc1ccc(/C(C)=N/NC(=O)Cc2c(C)nc(C)[nH]c2=O)cc1	-10%	11%	23%	-3%	-1.3%	?	13%	-15%
CCN(CC)C(=O)CSc1nnc(-c2cccs2)n1Cc1ccco1	2%	5%	1%	-5%	4.6%	-4%	-8%	-16%
N#Cc1ccc(NC(=O)COC(=O)CCc2nc3ccccc3c(=O)[nH]2)cc1	2%	1%	4%	.	.	9%[46.1 µM]	4%	-18%
O=C(CCS(=O)(=O)Cc1ccccc1F)NCCc1ccc(Cl)cc1	2%	0%	.	.	.	.	-5%	-5%
Cc1ccc(-c2nc3ccccc3o2)cc1NC(=S)NC(=O)c1cc2ccccc2o1	?	14%	?	6.3µM*	-1.0%	-12%	0%	9%
CCCCN(CC)C(=O)c1ccc2c(c1)NC(=O)c1ccccc1S2	.	.	.	-5%	-3.5%	?	.	-23%
COc1cccc(CCNC(=O)COc2cccc3c2OC(C)(C)C3)c1	.	0%	-3%	.	.	14%	1%	-16%
COC(CNC(=O)c1c[nH]c2ccc(S(=O)(=O)N3CCC4(CC3)OCCO4)cc2c1=O)OC	5%	-7%	?	-5%	-6.9%	-4%&-7%	9%	20%
O=C(NCC1CCN(Cc2cccc(Cl)c2)CC1)Nc1ccc(Cl)cc1	3%	1%	.	.	.	.	-8%	-17%
COc1ccc(/C=C/CN2CCN(Cc3ccc(C)cc3)C(CCO)C2)cc1 (stereo not given)	.	-1%	0%[46.1 µM]	.	.	?	5%	-19%
Cc1nc(N2CCN(c3ccccc3)CC2)[nH]c(=O)c1Cc1cccc2ccccc12	6%	5%	.	-4%	9.1%	.	.	.
C=CC(C)(C)c1cc2cc3ccoc3cc2oc1=O	-31%	-20%	5%	0%	-2.9%	1%&1%&1%	0%	19%
CCCOC(=O)Nc1nnc(CCC)s1	-1%	?	11%	-10%	2.2%	1%	-3%	32%[activator]
O=C(C[n+]1ccccc1)Nc1ccccc1Br	15%	0%	14%	.	.	?	-11%	-7%
O=C(O)CSCC(=O)NCc1ccccc1Cl	4%	1%	12%[46.1 µM]	.	.	19%[46.1 µM]	9%	-11%

3 of the compounds above, with two lines to a compound:
Results follow in this order: NS1 function inh, SARS PLpro yeast, LASV entry inh, Cruzain inh noDet, Cruzain Triton, MARV entry inh, RE007 growth inh, 2A StopGo
CCCCOc1ccc(NC(=O)CCSc2nccn2C)cc1
  -3%, -1%, 5%, ., ., 28%, 4%, 27%
COc1cc(C(C)=O)ccc1OCC(O)CN1CCN(c2c(C)cccc2C)CC1 (stereo not given)
  -1%, -4%, 7%[46.1 µM], ., ., ?, 14%, -23%
Cc1ccc(Nc2nnc(SCC(=O)Nc3cccc(S(=O)(=O)NC4=NCCCCC4)c3)s2)cc1
  ?, -13%, ?, 4%, -8.6%, -1%, -5%, -16%

Later entries.
Molecule	NS1 function inh	SARS PLpro yeast	LASV entry inh	Cruzain inh noDet	Cruzain Triton	MARV entry inh	RE007 growth inh	2A StopGo
CN(C)C(=O)On1c(-c2ccccc2)nc2ccc(Cl)cc21	-7%	-14%	1%	0%	-3.5%	5%	-2%	-1%
Cc1ccc(NC(=O)Cc2ccccc2Cl)cc1S(=O)(=O)N(C)C	-4%	17%	?	-1%	-1.1%	?	-12%	-17%
O=S(=O)(Cc1ccccc1)N1CCc2ccccc2C1	4%	1%	-4%	?	0.6%	16%	8%	6%
COc1ccc(CNc2ncc(-c3ccc(Cl)cc3)n2C)c(OC)c1OC	-1%	-1%	.	.	.	.	-12%	-6%
CSc1ccc(CCNC(=O)Cn2ccc3cc(S(=O)(=O)N4CCCCCC4)ccc32)cc1	.	.	3%[46.1 µM]	-9%	-5.1%	.	.	?
Cc1ccc2[nH]c(=O)c(C(c3nnnn3CCc3ccccc3)N3CCOCC3)cc2c1 (stereo not given)	0%	4%	?	6%	-7.5%	-13%	3%	-12%
COc1ccc(CCNS(=O)(=O)c2ccc(Cl)cc2)cc1OC	-5%	-2%	.	.	.	3%	5%	-6%
